Sa RN4220 lethal – kills Staphylococcus aureus RN4220 | AID 1259311 | S. aureus RN4220 growth, OD600, 16 h | inhibition, % (no concentration beside the values) | 330,000 tested, 0.33% active;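 active = z-score of -3 or lower and OD600 up to 0.18 on both plates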;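 note: plate controls were untreated cells for no effect and reference antibiotic for full effect; stock transfer was 100 nL into about 80 µL; one replicate is shown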
Autofluor counter – counter-screen for toxin protease inhibitors: compound fluorescence. compound autofluorescence counterscreen, microsphere flow cytometry; stronger effect = higher value. fluorescence intensity (no concentration beside the values). 360,000 tested, 3.1% active;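 active = at least 3 SD above the mean of all compounds, about 16000 in these data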;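 note: 100 nL of 1 mM stock went into each well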
Mtb hypoxia inh – inhibitors of hypoxia-regulated fluorescent reporter in Mycobacterium tuberculosis; M. tuberculosis hypoxia-regulated fluorescent reporter, fluorescence; fluorescence inhibition, % (test concentration not listed); 300,000 tested, 0.1% active;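 active = 35 to 45% if threefold the growth effect, above 45% if 1.5-fold the growth effect; inactive = the rest, general growth blockers included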;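 note: wells of about 50 µL received 100 nL stock; 0% = vehicle wells and 100% = reference inhibitor wells; whole bacteria with a GFP reporter of the hypoxia response; strong numbers were not always called active; many hits fall short of the cut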
ugtP null kill – growth inhibition of S. aureus ugtP deletion strain; S. aureus RN4220 ugtP deletion, OD600 growth, 16 h; some inactives read as strong as hits; growth inhibition, % (concentration not given with the values); 330,000 tested, 0.54% active; AID 1259309;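 active = z-score under -3 and OD600 up to 0.15 on both plates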;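 note: plate controls were untreated wells for no effect and antibiotic for full effect; wells of about 80 µL received 100 nL stock; the first replicate is given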
PrP UTR inh – suppresses PrP 5' UTR mRNA reporter expression | cell-based PrP 5' UTR mRNA reporter, plate reader | inhibition, % (no concentration beside the values) | 340,000 tested, 0.35% active;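 active = every replicate at 50% or more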;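 note: 0 = median of the neutral control wells; tested in H4 reporter cells; numbers are from one replicate; inactives centre near -14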
BJeLR lethal – BJeLR cell viability loss; BJeLR (HRASV12) viability, CellTiter-Glo ATP luminescence, 48 h; reference of the scale not given here; inhibition, % (concentration not given with the values); 300,000 tested, 0.17% active; AID 1554;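 active = replicate mean above 50%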;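 note: 50 nL library stock added to about 25 µL; numbers are from one replicate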
Mtb hypoxia inh growth – recorded beside Mtb hypoxia inh, whose call it bears; growth inhibition, %; measured here: M. tuberculosis growth (absorbance);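 0% = vehicle and 100% = reference antibiotic; read after six days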
Starred values were filed as active, the others as inactive; . = no result given.

SMILES	Sa RN4220 lethal	Autofluor counter	Mtb hypoxia inh	Mtb hypoxia inh growth	ugtP null kill	PrP UTR inh	BJeLR lethal
C#C[C@]1(O)CCC2C3CCC4=CC(=NOCC(=O)NC(C)C(=O)NC(CCSC)C(=O)O)CC[C@]4(C)C3CC[C@@]21C (some centres not stated)	1.8	.	-3	14	-8	.	.
CCOC(=O)CSc1nnc(-c2cccc(Cl)c2)n1CC	-3.8	3736	2	0	7	-26	4
COC(=O)c1ccc(N2CCN(C)CC2)c(NC(=O)COc2ccccc2Cl)c1	-0.9	3601	4	11	1	-11	12
CCN(C1CCCCC1)S(=O)(=O)c1ccc(C(=O)O)cc1	7.6	23470*	3	2	-4	-1	-4
O=C(Cc1ccccc1)Nc1ccc2oc(=O)ccc2c1	6.1	3233	5	19	3	15	7
O=C(NCCCc1ccccc1)C(=O)NCC1OCCN1S(=O)(=O)c1ccccc1 (configuration not stated)	-0.1	5080	-6	-18	0	1	1
CS(=O)(=O)c1ccc2nnn(OCC(=O)Nc3ccc(Br)cc3Br)c2c1	1.7	4398	-11	2	1	3	-3
Cc1ccc(-c2csc(-c3ccncc3)n2)cc1	3.5	2595	-5	-7	-16	-50	6
Cc1ccc(-c2nnc(C)c(N3CCCC3)n2)cc1	6.3	2625	.	.	9	-16	5
COC(=O)c1cccc(COC(=O)c2cc3ccccc3oc2=O)c1	1.2	3795	21	15	5	4	-3
CCOC(=O)C1C2COc3ccc(Cl)cc3C2N2C(=O)CN(Cc3ccccc3)C(=O)[C@@]12C (some centres not stated)	8.0	.	20	10	13	.	.
CCOC(=O)C(NC(=O)CC)(Nc1ccccc1OC)C(F)(F)F (configuration not stated)	-1.7	4250	.	.	-2	-24	0
Cc1nnsc1-c1c(C(=O)N2CCOCC2)c(C)nn1-c1ccccc1	0.1	3978	2	-3	2	1	6
Nc1nonc1-c1nc2ccccc2n1CC(=O)Nc1ccccc1	2.9	2980	6	-4	-4	-1	-2
O=C(Oc1ccc(/C=N/O)cc1)c1ccccc1Cl	.	2053	.	.	.	-47	-5
O=[N+]([O-])c1ccc(/C([O-])=C(/C(=S)NCc2ccco2)[n+]2ccccc2)cc1	1.7	3826	-9	14	2	-14	-8
COC(=O)c1ccc(CSc2nnc(N)s2)cc1	3.6	2891	-1	4	-1	-28	4
Cc1cccc(NC(=S)N(CCN2CCOCC2)Cc2ccccc2F)c1	1.9	4398	13	7	6	2	-18
COc1ccc(OC)c(NC(=O)C(C)N2c3cccc4cccc(c34)S2(=O)=O)c1 (configuration not stated)	6.5	5072	13	10	0	-19	-4
COCc1[nH]nc2c1C(c1ccc(F)cc1F)C(C#N)=C(N)O2 (configuration not stated)	1.4	7050	3	10	1	-12	-6
CC(=O)N1c2ccc(S(=O)(=O)N3CCCC3)cc2CC1C(=O)NCc1ccccc1F (configuration not stated)	-3.6	6207	-3	-16	-3	-8	-2
Cc1ccc(-n2c(-c3ccc(Br)cc3)c[n+]3c2CCc2ccc4cccnc4c2-3)cc1	99*	21635*	.	.	90	-15	77*
Cc1cc(=O)[nH]c2nnc(-c3ccc(Cl)cc3)n12	1.6	3963	16	9	10	-19	11
N#CCCNC(=O)CCN1CCOCC1	6.8	2597	.	.	-1	-15	5
Cc1cc(C(=O)NN=Cc2cccc([N+](=O)[O-])c2)c(C)n1-c1ccccc1	-3.2	.	13	6	-7	.	.
Cc1ccc(NC2=CC(=O)CC(c3ccco3)C2)c(N)c1 (configuration not stated)	4.8	2455	5	7	-8	-28	-5
CCc1nnc(NC(=O)CCC(=O)N2CCN(CCc3ccccc3)CC2)s1	21	2846	9	6	15	-19	0
O=C(CSc1nc(-c2ccco2)cc(C(F)(F)F)n1)NCCN1CCOCC1	2.6	2148	1	16	7	-11	-5
COc1ccccc1C(=O)N/C(=C/c1ccco1)C(=O)Nc1ccc(C(=O)O)cc1	5.3	3505	12	-3	4	-13	3
CCOC(=O)[C@@H]1[C@H]2COc3ccccc3[C@@H]2N2C(=O)N(c3ccc(F)cc3)C(=O)[C@@]12C	.	3910	.	.	.	-37	9
COC(=O)C(NS(=O)(=O)c1ccccc1Br)C(C)C (configuration not stated)	3.0	2836	4	11	3	-19	-4
CCOC(=O)c1c(C)oc(/N=C/c2ccccc2O)c1C#N	.	3488	.	.	.	-15	-12
CCC(C)[C@H](NC(=O)[C@H](Cc1ccccc1)n1c(=O)[nH]c2ccccc2c1=O)C(=O)N1CCC(C(=O)O)CC1 (some centres not stated)	0.0	5599	.	.	4	-28	-3
COc1cccc(NC(=O)CCc2c(C)nc3nc(CNC(=O)c4cccc(F)c4)nn3c2C)c1	-8.2	4886	7	1	14	-25	-8
CCN1C(=O)C2C(C1=O)C(c1ccc(Br)cc1)N1C(=O)c3ccccc3NC(=O)C21 (configuration not stated)	4.8	.	5	4	-4	.	.
Cn1c(-c2ccc3c(c2)OCO3)c(C(=O)O)c(=O)c2ccccc21	4.9	2458	10	2	6	-6	1
O=S(=O)(NCCc1ccncc1)c1ccc(Br)cc1	3.4	22923*	13	2	-8	-7	-4
COc1cc(OC)cc(C(=O)NC(=S)Nc2cc3oc4ccccc4c3cc2OC)c1	4.8	2527	1	5	25	-13	-25
O=c1[nH]c(=O)n(Cc2ccccc2)c2nc(-c3ccco3)cc(C(F)(F)F)c12	12	2115	9	2	16	-2	-3
Cc1cc(=O)n(C)c(=O)n1CCCCOc1cccc([N+](=O)[O-])c1	-1.8	1935	2	3	-9	-9	-2
CCCCn1cnc2c([nH]c3ccccc32)c1=O	5.7	2854	8	7	-4	-42	1
Cc1ccc(C2=NN(C(=O)CSc3nc4ncc(Cl)cc4[nH]3)C(c3ccco3)C2)cc1 (configuration not stated)	1.0	3217	5	1	6	-16	1
Cc1ccc(C(=O)Nc2ccccc2C(=O)N2CCN(c3ccccc3)CC2)cc1	-1.4	5937	-3	3	-3	-16	-4
Cc1ccc(NC2=NCC(=O)N2c2ccc3c(c2)OCCO3)c(C)c1	-2.1	4799	.	.	8	-9	0
COc1ccc(C(O)(C2CCCCC2)C(CN2CCCC2)c2ccccc2)cc1 (configuration not stated)	-1.8	4027	-3	8	4	-18	6
COc1cccc(COC(=O)c2nn(-c3ccccc3)nc2N)c1	-0.7	2012	-3	4	15	-17	-3
COC(=O)CCC(=O)Nc1c(C)n(C)n(-c2ccccc2)c1=O	4.7	4774	3	3	-1	-13	4
Cc1nc(-c2cccc(S(=O)(=O)N3CC(C)CC(C)C3)c2)cs1 (configuration not stated)	4.5	2953	-4	6	-10	-30	0
Cc1ccc(-c2nnn(CC(=O)N(Cc3ccc(F)cc3)C(C(=O)NC3CCCC3)c3ccncc3)n2)o1 (configuration not stated)	-2.1	4936	.	.	3	-19	1
NS(=O)(=O)c1cccc2cccnc12	2.0	3824	3	4	4	-3	7
Cc1cc(C)c(C)c(S(=O)(=O)NCCCN2CCOCC2)c1C	8.3	3961	-1	8	12	4	3
O=C(NNC(=O)c1ccccc1[N+](=O)[O-])c1ccc(NS(=O)(=O)c2cccs2)cc1	5.6	6545	2	-9	4	1	4
N#Cc1cc([N+](=O)[O-])ccc1Oc1ccc(-c2nnco2)cc1	0.6	6110	0	2	0	-7	-3
CC1CCCCN1C(=O)CSc1nc(C2CC2)nc2c1cnn2-c1ccccc1 (configuration not stated)	4.8	5159	16	8	40	-11	-13
CC(=O)Nc1ccc(S(=O)(=O)N(C)CC(=O)OCC(=O)Nc2cccnc2Cl)cc1	7.5	1958	2	4	2	3	-11
COc1ccc(-n2c(SC)nc3ccccc3c2=O)cc1	1.0	3059	-3	3	7	-7	-5
COCCOC(=O)C1=C(N)Oc2c(oc(CO)cc2=O)C1c1c(F)cccc1Cl (configuration not stated)	5.4	4434	.	.	-3	9	5

Some of the entries so far, with values under each structure.
The line under a structure holds: Sa RN4220 lethal | Autofluor counter | Mtb hypoxia inh | Mtb hypoxia inh growth | ugtP null kill | PrP UTR inh | BJeLR lethal
Cc1ccc(C2=NN(C(=O)CSc3nc4ncc(Cl)cc4[nH]3)C(c3ccco3)C2)cc1 (configuration not stated)
→ 1.0 | 3217 | 5 | 1 | 6 | -16 | 1
Cc1ccc(C(=O)Nc2ccccc2C(=O)N2CCN(c3ccccc3)CC2)cc1
→ -1.4 | 5937 | -3 | 3 | -3 | -16 | -4
Cc1ccc(NC2=NCC(=O)N2c2ccc3c(c2)OCCO3)c(C)c1
→ -2.1 | 4799 | . | . | 8 | -9 | 0
COc1ccc(C(O)(C2CCCCC2)C(CN2CCCC2)c2ccccc2)cc1 (configuration not stated)
→ -1.8 | 4027 | -3 | 8 | 4 | -18 | 6
COc1cccc(COC(=O)c2nn(-c3ccccc3)nc2N)c1
→ -0.7 | 2012 | -3 | 4 | 15 | -17 | -3
COC(=O)CCC(=O)Nc1c(C)n(C)n(-c2ccccc2)c1=O
→ 4.7 | 4774 | 3 | 3 | -1 | -13 | 4
Cc1nc(-c2cccc(S(=O)(=O)N3CC(C)CC(C)C3)c2)cs1 (configuration not stated)
→ 4.5 | 2953 | -4 | 6 | -10 | -30 | 0
Cc1ccc(-c2nnn(CC(=O)N(Cc3ccc(F)cc3)C(C(=O)NC3CCCC3)c3ccncc3)n2)o1 (configuration not stated)
→ -2.1 | 4936 | . | . | 3 | -19 | 1
NS(=O)(=O)c1cccc2cccnc12
→ 2.0 | 3824 | 3 | 4 | 4 | -3 | 7
Cc1cc(C)c(C)c(S(=O)(=O)NCCCN2CCOCC2)c1C
→ 8.3 | 3961 | -1 | 8 | 12 | 4 | 3
O=C(NNC(=O)c1ccccc1[N+](=O)[O-])c1ccc(NS(=O)(=O)c2cccs2)cc1
→ 5.6 | 6545 | 2 | -9 | 4 | 1 | 4
N#Cc1cc([N+](=O)[O-])ccc1Oc1ccc(-c2nnco2)cc1
→ 0.6 | 6110 | 0 | 2 | 0 | -7 | -3
CC1CCCCN1C(=O)CSc1nc(C2CC2)nc2c1cnn2-c1ccccc1 (configuration not stated)
→ 4.8 | 5159 | 16 | 8 | 40 | -11 | -13
CC(=O)Nc1ccc(S(=O)(=O)N(C)CC(=O)OCC(=O)Nc2cccnc2Cl)cc1
→ 7.5 | 1958 | 2 | 4 | 2 | 3 | -11
COc1ccc(-n2c(SC)nc3ccccc3c2=O)cc1
→ 1.0 | 3059 | -3 | 3 | 7 | -7 | -5
COCCOC(=O)C1=C(N)Oc2c(oc(CO)cc2=O)C1c1c(F)cccc1Cl (configuration not stated)
→ 5.4 | 4434 | . | . | -3 | 9 | 5

High-throughput results (PubChem BioAssay)
